TRPV1 PAM: human TRPV1 potentiation; 0.02% of 320,000 active; TRPV1-expressing cells, Fluo-8 calcium influx, capsaicin EC20 potentiation; host cell line not named in the record; control for the full effect not named in the record; potentiation, % at 8.33 µM; AID 540277; active means potentiation above 80%; inconclusive means 30% to 80%; inactive means below 30%; further: 0% is about no effect
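Cells expressing TRPV1 were dye-loaded with Fluo-8 and read kinetically: 10 s baseline, 3 min after compound (agonist portion), then 2 min after EC20 capsaicin (allosteric enhancer portion). Calcium-bound dye fluorescence at 480/520 nm.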
TRPML1 blocker: blocks the human TRPML1 channel | Q9GZU1 | activity change, negative = inhibition, % (test concentration not listed) | TRPML1-inducible cells, Ca2+ dye fluorescence, FDSS; active compounds read low; inhibition of EC80 agonist-evoked calcium signal | 0.02% of 390,000 active; in the data active means activity change below about -50%; inconclusive means about -30% to -50%; inactive means above about -30%;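 further: stimulus is agonist 54-4 at its EC80 concentration; on the % scale 0 is the no-effect control and ±100 the full control effect; compound concentration not given in the record; the text of the record puts the active cut at -80%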
Target sequence (Q9GZU1 whole entry, looked up): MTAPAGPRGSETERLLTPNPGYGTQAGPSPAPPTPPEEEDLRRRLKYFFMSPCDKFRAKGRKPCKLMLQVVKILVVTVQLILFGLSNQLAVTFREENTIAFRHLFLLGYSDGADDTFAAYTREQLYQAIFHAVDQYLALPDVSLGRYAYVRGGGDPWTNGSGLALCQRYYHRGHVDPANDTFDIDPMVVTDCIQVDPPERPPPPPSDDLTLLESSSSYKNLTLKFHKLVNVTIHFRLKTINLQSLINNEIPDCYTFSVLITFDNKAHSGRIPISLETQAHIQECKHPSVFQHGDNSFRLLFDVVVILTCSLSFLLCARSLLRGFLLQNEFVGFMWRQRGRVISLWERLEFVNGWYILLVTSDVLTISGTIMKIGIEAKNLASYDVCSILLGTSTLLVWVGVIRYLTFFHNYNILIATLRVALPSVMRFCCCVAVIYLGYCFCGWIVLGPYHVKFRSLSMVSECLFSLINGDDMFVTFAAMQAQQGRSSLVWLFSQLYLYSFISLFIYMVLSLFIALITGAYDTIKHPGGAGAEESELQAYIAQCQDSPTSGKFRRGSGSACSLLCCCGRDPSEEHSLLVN
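Tet-induced TRPML1-DL cells loaded with Ca8 no-wash calcium dye were read kinetically on FDSS. Compound addition was followed by EC80 agonist 54-4 (4 uM final); inhibition was read over 110 s.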
D2 potentiator: human D2 receptor positive allosteric modulation. P14416. DiscoveRx D2 beta-arrestin cells, luminescence, 90 min; 100% = 57 uM dopamine signal. potentiation, % (concentration not given with the values). 0.23% of 360,000 active; active = potentiation of 50% or more; inconclusive = 30% to 50%; inactive = 30% or less;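 further: compound concentration not given in the record; tested on top of an EC20 dose of dopamine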
Target sequence (P14416 whole entry, looked up): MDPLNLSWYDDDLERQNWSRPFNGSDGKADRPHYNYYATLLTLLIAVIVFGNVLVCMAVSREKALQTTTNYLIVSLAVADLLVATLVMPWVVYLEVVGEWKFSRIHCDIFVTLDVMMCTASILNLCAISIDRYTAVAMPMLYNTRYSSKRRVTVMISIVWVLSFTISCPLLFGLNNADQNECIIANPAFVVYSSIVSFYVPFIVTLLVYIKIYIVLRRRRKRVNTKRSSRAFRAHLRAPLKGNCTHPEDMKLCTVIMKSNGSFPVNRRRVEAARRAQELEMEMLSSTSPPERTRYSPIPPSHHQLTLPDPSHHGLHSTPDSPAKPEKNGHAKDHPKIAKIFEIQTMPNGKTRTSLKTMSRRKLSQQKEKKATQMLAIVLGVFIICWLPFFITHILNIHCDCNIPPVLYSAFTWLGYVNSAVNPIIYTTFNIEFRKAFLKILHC
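PathHunter D2 cells, attached overnight at 37 deg C, received compound in DMSO plus dopamine at EC20 (50 nM final) for 90 min at 37 deg C. Beta-arrestin recruitment was read as luminescence after 1 h with detection reagent at ambient temperature.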
TRPML1 agonist: activates the human TRPML1 channel; Q9GZU1; TRPML1-expressing cells, Ca2+ dye fluorescence, FDSS; host cell line not named in the record; reference of the full effect not given here; activation, % (no concentration beside the values); 0.12% of 410,000 active; in the data active = activation above about 50%; inconclusive = about 30% to 50%; inactive = below about 30%; further: 0% is about no effect; the text of the record puts the active cut at 80%
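Kinetic FDSS Ca2+ read in Tet-induced TRPML1-DL cells (ABD Ca8 dye plus quencher, 45-90 min RT loading): baseline, then compound, then 110 s agonist window; EC80 agonist 54-4 at 4uM final added afterwards for a 110 s antagonist window.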
CtBP-E1A blk: inhibitors of CtBP/E1A interaction | activity change, % (no concentration beside the values) | AlphaScreen GST-E1A/His-CtBP binding, 1536-well; active compounds read low; control for the full effect not named in the record | 0.49% of 340,000 active; in the data active means activity change below about -65%; inconclusive means about -30% to -65%; inactive means above about -30%; further: on the % scale 0 is the no-effect control and ±100 the full control effect
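In 5 uL wells, 23 nL compound meets equimolar GST-E1A and His-CtBP (5X stock 125 nM each) for 2 h, 37 °C. Beads (5X, 50 ug/mL) then 1 h, 37 °C, dark.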
Six1-Eya2 inh: blocks human Six1 binding to Eya2 | Q15475+O00167 | AID 651725 | 0.56% of 360,000 active | AlphaScreen GST-Six1/His-Eya2 binding, biochemical; active compounds read low; control for the full effect not named in the record | activity change, % (concentration not given with the values); in the data active = activity change below about -65%; inconclusive = about -30% to -65%; inactive = above about -30%; further: on the % scale 0 is the no-effect control and ±100 the full control effect
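AlphaScreen luminescence read after one hour at 37 °C in darkness. Pin-transferred compounds met GST-Six1 and His-Eya2 protein (5X stock 250 nM/500 nM) plus glutathione donor and Ni-chelate acceptor beads (5X, 50 ug/mL).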
Numbers without * were called inactive; u = inconclusive; x = no result given; & = joins results of further samples.

The first 12 entries, ahead of the listing:
Sequence of screens: D2 potentiator	TRPML1 agonist	TRPML1 blocker	Six1-Eya2 inh	TRPV1 PAM	CtBP-E1A blk
- COC(=O)Cn1cnc2scc(-c3ccc(C)cc3)c2c1=O
→ -1	-0.4	12	9	-1	3
- Cc1cc([N+](=O)[O-])ccc1NC(=O)c1cc2ccccc2o1
→ -7	0.6	7	-3	21	7
- COc1ccc(N2CCN(c3nc(C)c(C)c(=O)[nH]3)CC2)cc1
→ -5	-0.6	7	22	-38	-14
- COc1ccc(-c2c(-c3ccc(OC)c(F)c3)c3ccccc3n2C)cc1
→ 2	0.8	62	u	x	u
- COc1ccc(NC(=O)CCCNC(=O)Cn2cnc3sc4c(c3c2=O)CCCC4)cc1OC
→ -9	-0.1	1	-5	-2	20
- CC(C)C[C@H]1CNC(=S)N1CC1CCCN1C[C@H](Cc1ccccc1)N1C[C@H](Cc2ccc(O)cc2)N(CC2CCCCCC2)C1=S (stereo partly drawn)
→ -3	-0.7	2	-8	x	-6
- COc1ccc(-n2c(N)cc(=O)[nH]c2=O)cc1
→ -7	0.4	5	7	7	11
- COc1ccc(CCNC(=O)CN2C(=O)NC(c3ccccc3)(c3ccccc3)C2=O)cc1
→ 12	0.1	-11	2	x	-2
- Cc1ccc(S(=O)(=O)Oc2cccc(/C=N/n3cnnc3)c2)cc1
→ 22	-0.6	-3	-14	12	-2
- CC1=NN(C(C#N)c2ccc(F)cc2)C(c2ccccc2)C1 (stereo not drawn)
→ 0	0.6	5	17	-34	12
- COc1cc(/C=C/C(=O)O)cc(S(=O)(=O)Nc2cccc(S(=O)(=O)N3CCOCC3)c2)c1OC
→ 2	3.6	17	4	-7	x
- O=C(Nc1ccc(N2CCN(C(=O)c3ccc(Cl)cc3)CC2)cc1)c1cccnc1
→ -10	-1.6	9	-9	6	-1

Main list, from the start:
Sequence of screens: D2 potentiator	TRPML1 agonist	TRPML1 blocker	Six1-Eya2 inh	TRPV1 PAM	CtBP-E1A blk
- COC(=O)Cn1cnc2scc(-c3ccc(C)cc3)c2c1=O
→ -1	-0.4	12	9	-1	3
- Cc1cc([N+](=O)[O-])ccc1NC(=O)c1cc2ccccc2o1
→ -7	0.6	7	-3	21	7
- COc1ccc(N2CCN(c3nc(C)c(C)c(=O)[nH]3)CC2)cc1
→ -5	-0.6	7	22	-38	-14
- COc1ccc(-c2c(-c3ccc(OC)c(F)c3)c3ccccc3n2C)cc1
→ 2	0.8	62	u	x	u
- COc1ccc(NC(=O)CCCNC(=O)Cn2cnc3sc4c(c3c2=O)CCCC4)cc1OC
→ -9	-0.1	1	-5	-2	20
- CC(C)C[C@H]1CNC(=S)N1CC1CCCN1C[C@H](Cc1ccccc1)N1C[C@H](Cc2ccc(O)cc2)N(CC2CCCCCC2)C1=S (stereo partly drawn)
→ -3	-0.7	2	-8	x	-6
- COc1ccc(-n2c(N)cc(=O)[nH]c2=O)cc1
→ -7	0.4	5	7	7	11
- COc1ccc(CCNC(=O)CN2C(=O)NC(c3ccccc3)(c3ccccc3)C2=O)cc1
→ 12	0.1	-11	2	x	-2
- Cc1ccc(S(=O)(=O)Oc2cccc(/C=N/n3cnnc3)c2)cc1
→ 22	-0.6	-3	-14	12	-2
- CC1=NN(C(C#N)c2ccc(F)cc2)C(c2ccccc2)C1 (stereo not drawn)
→ 0	0.6	5	17	-34	12
- COc1cc(/C=C/C(=O)O)cc(S(=O)(=O)Nc2cccc(S(=O)(=O)N3CCOCC3)c2)c1OC
→ 2	3.6	17	4	-7	x
- O=C(Nc1ccc(N2CCN(C(=O)c3ccc(Cl)cc3)CC2)cc1)c1cccnc1
→ -10	-1.6	9	-9	6	-1
- C#Cc1ccc(NC(=O)C2(C)CCN2C(=O)CC(c2ccccc2)c2ccccc2)cc1 (stereo not drawn)
→ -9	0.0	x	2	x	0
- CCOC(=O)N1CCN(C(=O)COC(=O)c2ccc([N+](=O)[O-])cc2Cl)CC1
→ 18	1.1	-3	-2	11	2
- CN(C)c1ccccc1C(=O)c1ccccc1N(C)C
→ -4	4.9	29	-10	-3	-22
- Oc1ccc(CNc2ccccc2O)cc1
→ u	1.1	-22	-21	-13	-20
- CN(C)c1ccc(NC(=O)CN2CCC(N3CCCCC3)CC2)cc1
→ 8	2.8	2	-1	2	11
- CC(C)CN1CCC(=O)N(CCC#N)CC1
→ -7	0.3&-0.4	3	16	24	-17
- COc1ccc(C(=O)NC2CC3CCCC(C2)N3CC(C)C)cc1 (stereo not drawn)
→ -10	0.1	-11	1	5	0
- Cc1ccccc1-c1nnn(CC(=O)N2CCN(S(=O)(=O)c3ccc(Cl)cc3)CC2)n1
→ -14	1.4	11	0	-1	2
- CCCNC(=O)C1(C)CCCN(C(=O)c2sccc2C)C1 (stereo not drawn)
→ -11	-0.1	37	-5	x	5
- COC(=O)Cn1c(=NC(=O)C(C)C)sc2c(C)cc(C)cc21
→ -3	0.3	6	-1	-2	0
- Cc1ccc(F)cc1NC(=O)CN1CCN(c2ccccn2)CC1
→ -9	-0.9	12	0	4	-1
- Cc1cccc(C)c1NC(=O)CNC(=O)Cc1ccc(Br)cc1
→ 3	0.7	-4	16	-1	x
- CCOc1ccc(Nc2nc(Cl)nc(N3CCN(c4ccc(OC)cc4)CC3)n2)cc1
→ 11	0.5	59	u	3	u
- Cc1cc(C)n(Cc2ccc(Cl)c(Cl)c2)c(=O)c1S(=O)(=O)c1ccccc1
→ -5	-0.1	2	-2	15	-2
- CCOC(=O)C1(C)CCN1C(=O)c1ccoc1 (stereo not drawn)
→ -1	-0.3	x	1	x	6
- CCC(=O)N1CCCc2cc(S(=O)(=O)N3CCCc4ccccc43)ccc21
→ -13	-0.2	4	-3	-14	-4
- NC(=O)C1CCN(C(=O)c2cccc(S(=O)(=O)N3CCc4ccccc4C3)c2)CC1
→ 2	-0.1	9	6	7	-4
- Cc1ccc(N2CN=c3s/c(=C\c4cccnc4)c(=O)n3C2)cc1
→ -3	-0.3	2	-2	-6	-2
- CN(CCCNC(=O)c1cccn2c(=O)c3ccccc3nc12)Cc1ccccc1
→ -20	0.8	4	-13	6	-16
- CC(=O)Nc1ccc(S(=O)(=O)Nc2ccccc2N2CCOCC2)cc1
→ -3	1.4	-4	1	-9	0
- COc1ccc(C)cc1NC(=O)C(Sc1nnc(-c2ccncc2)n1-c1ccc(Cl)cc1)c1ccccc1 (stereo not drawn)
→ -10	1.9	-7	-19	-15	0
- Cc1ccc(NC(=O)[C@H](NC(=O)[C@@H]2Cc3ccccc3CN2)c2ccccc2)c(C)c1
→ -15	-0.8	-19	-3	13	1
- COc1ccc(Cn2c(-c3ccc(Br)cc3)c[n+]3ccccc23)cc1
→ -5	1.6	17	-1	0	-23
- CCOC(=O)N1CCN(S(=O)(=O)c2ccc(C(=O)N(CCCN(C)C)c3nc4c(F)cc(F)cc4s3)cc2)CC1
→ -7	0.0	-5	2	-7	-5
- COc1cccc(NC(=O)c2ccc(S(=O)(=O)N(C)C)cc2)c1
→ -1	0.3	6	2	-2	12
- CCOC(=O)Cc1csc(NS(=O)(=O)c2ccc(OC)cc2)n1
→ -5	0.7	-8	4	9	2
- C[C@H]1CN([C@@H](C)CO)C(=O)Cc2cc(NC(=O)CCC(F)(F)F)ccc2O[C@H]1CN(C)Cc1ccc(-c2ccccc2)cc1
→ -2	0.3	32	-11	x	-9
- NS(=O)(=O)c1ccc(CCNC(=O)COC(=O)C2COc3ccccc3O2)cc1 (stereo not drawn)
→ -2	0.9	18	3	x	7
- COC(=O)c1ccc2ncccc2c1
→ -21	0.4	6	10	0	2
- CCCCC(=O)N(C)c1c(CC)nc2c(OCC=C(C)C)cccn12
→ -10	-1.0	x	7	x	-4
- CCOc1ccc(/C(O)=C2/C(=O)C(=O)N(CC3CCCO3)C2c2ccco2)cc1 (stereo not drawn)
→ 26	0.2	34	5	3	-1
- CCCS(=O)(=O)NC(=O)C1(C)CCN(C(=O)c2ccc(F)c(C)c2)C1 (stereo not drawn)
→ 1	-0.4	x	1	x	1
- Cc1cccc(NC(=O)c2c(C)nn(-c3ccccc3)c2Cl)c1
→ 15	0.0	-9	4	-5	-14
- Cc1ccc(S(=O)(=O)NC(CC(C)C)C(=O)N2CC(C)OC(C)C2)cc1 (stereo not drawn)
→ -18	0.5	-7	1	0	-2
- Cc1cc(NC(=O)COn2nnc3ccc(S(C)(=O)=O)cc32)ccc1Br
→ -12	-0.6	9	-3	4	-1
- Cc1cc(F)ccc1S(=O)(=O)N(C(=O)c1ccncc1)c1ccc(OC(=O)c2ccncc2)cc1
→ -1	2.3	37	-4	6	0
- Cc1ccc(NC(=O)c2ccc(S(=O)(=O)N3CCCCC3)cc2)cc1
→ -6	2.1	-3	4	-28	21
- NC(=O)C1CCN(C(=O)c2ccc(Cl)c(NC(=O)c3cccs3)c2)CC1
→ -3	-0.1	6	5	x	0
- COc1cc(C(=O)N2CCN(Cc3ccccc3C(F)(F)F)CC2)cc(OC)c1OC
→ -19	-0.4	5	-2	1	-5
- O=C(N/N=C/CCc1ccccc1)C1CCCCC1
→ -11	1.5	17	4	u	1
- CC(=O)c1cccc(NC(=O)NC(C)C2CCCO2)c1 (stereo not drawn)
→ 8	0.6	-14	7	-1	-4
- COc1ccc(-c2ccc3nnc(SCC(=O)Nc4ccc(NC(C)=O)cc4)n3n2)cc1
→ 8	0.4	13	3	1	0
- COc1ccc(NC(=O)NC2CC3CCCC(C2)N3Cc2ccccc2)cc1 (stereo not drawn)
→ -35	0.5	-2	0	-19	-1
- Cc1ccc(C(c2nnnn2CC2CCCO2)N2CCN(Cc3ccccc3)CC2)cc1 (stereo not drawn)
→ -14	0.9	-2	2	3	-5
- C=CCOc1cccc(/C=N/NC(=O)CN2CCCCC2)c1
→ -16	-0.5	5	-1	-6	5
- O=C1c2cccc3c([N+](=O)[O-])c(O)cc(c23)C(=O)N1Nc1ccccc1
→ -13	0.3	0	-7	4	0
- CC(C)(C)n1nnnc1C(c1ccncc1)N1CCN(C2CCCCC2)CC1 (stereo not drawn)
→ 3	-0.5	-10	3	1	6
- CN(Cc1ccccc1)C(=O)c1cccc(NC(=O)Cc2ccc(NC(=O)C3CCN(C(=O)C4CCCCC4)CC3)cc2)c1
→ 0	0.9	-4	-1	x	4

Additional compounds follow:
Sequence of screens: D2 potentiator	TRPML1 agonist	TRPML1 blocker	Six1-Eya2 inh	TRPV1 PAM	CtBP-E1A blk
- CC(NC(=O)NC1CCCCC1)c1ccc2c(c1)OCO2 (stereo not drawn)
→ -6	0.5	22	7	-12	x
- CC(=O)Nc1ccc(S(=O)(=O)N2CCN=C2SCc2cccc(C)c2)cc1
→ 23	1.1	6	-7	-48	0
- O=c1c2[nH]c3ccccc3c2ncn1CCCn1ccnc1
→ -5	-0.6	6	-3	13	-3
- Cc1ccc(S(=O)(=O)c2c(C)c(C)c(C)[nH]c2=O)cc1
→ -4	0.1	34	-5	7	u
- CC(NC(=O)C1CCC(=O)N1Cc1ccc(F)cc1)c1ccc2c(c1)OCCO2 (stereo not drawn)
→ -6	-0.2	-28	-3	x	3
- COc1ccccc1S(=O)(=O)N(C)C[C@H]1OCc2cnnn2CCCC(=O)N([C@@H](C)CO)C[C@H]1C
→ -1	0.3	4	7	x	-3

Rows are unselected, and some 0.95% of all compounds hit somewhere here.
